PABP polyA inh: PABP-poly(A) binding inhibition; PABP-poly(A) RNA binding, fluorescence polarization; inhibition, % at 35 µM; 290,000 compounds, 1% hits; AID 2014; P11940;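 active = 50% or more with normal probe brightness, or confirmed in later tests; about a fifth of its hits are not listed in these tables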;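 also: calls also rest on retests at 20 µM and on dose response follow-up; controls were probe without protein and protein plus probe with vehicle; some compounds called inactive have numbers as strong as hits; many hits fall short of the cut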
CSC inhib: blocks cancer stem cells; cancer stem cell-like cells viability, luminescence; inhibition, % at 7.5 µM; 300,000 compounds, 1.1% hits; AID 2717;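 active = mean at 75% or more and at least half the replicates too; tested in HMLE shEcad cells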;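 also: 0% = median of negative and 100% = median of positive control wells; the first replicate is given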
MT1-MMP act inh: MT1-MMP (human) activation inhibition; P50281; HT1080 RFP-PRO-GFP cells, GFP/RFP ratio fluorescence, overnight; percent of plate control window, DMSO zero; GFP/RFP ratio change, % at 20 µM; 360,000 compounds, 0.061% hits;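 active = GFP/RFP ratio change of at least 30% with cell ATP level not reduced by more than half and red fluorescence within 50% of control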; also: strong numbers were not always called active
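Read-out: GFP/RFP fluorescence ratio; Test system: RFP-PRO-GFP reporter HT1080 cells; Compound dosing: single-point 20 µM compound, 1% DMSO; Times: overnight compound exposure at 37 °C.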
UUG fidelity: alters start codon recognition fidelity in yeast; S. cerevisiae UUG-firefly luciferase reporter, luminescence/redox ratio; activity score, % at 18.7 µM; 350,000 compounds, 0.13% hits; AID 602363;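 active = replicate mean at a twofold rise or more, about +100% in these data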;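 also: firefly luciferase made from a UUG start codon reports start codon fidelity; reporter light over untreated wells divided by growth signal over untreated wells; some hits fall short of that in this replicate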
eIF4H FP inh: inhibitors of RNA binding by human eIF4H. Q15056. 290,000 compounds, 0.94% hits. inhibition, % at 35 µM. eIF4H fluorescence polarization binding assay;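 active = 50% or more with normal probe brightness, or confirmed in later tests; about a fifth of its hits are not listed in these tables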;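 also: calls also rest on retests at 20 µM and on dose response follow-up; 0% = protein and probe with vehicle and 100% = probe without protein; strong numbers were not always called active; many hits fall short of the cut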
Env fusion inh: inhibitors of HIV Env-mediated cell fusion. HeLa-JRFL Env/CEM21 cell fusion, luciferase. inhibition, % at 12.3 µM. 360,000 compounds, 1.1% hits;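 active = mean replicate inhibition score of at least 50 and every replicate individually at or above 50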;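 also: 0% = plate neutral controls and 100% = maraviroc near 300 nM; one replicate is shown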
Rce1 inhib: yeast Ras-converting enzyme inhibition; calls only; 290,000 compounds, 0.27% hits; Q03530; yeast membranes, quenched prenylated peptide cleavage fluorescence;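 active = fall in fluorescence gain of 50% or more versus controls, with final raw signal at or below 3038400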;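 also: plate controls were neutral control wells for no effect and wells lacking membranes for full effect; tested at 10 µM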
Target sequence (Q03530 whole entry, looked up): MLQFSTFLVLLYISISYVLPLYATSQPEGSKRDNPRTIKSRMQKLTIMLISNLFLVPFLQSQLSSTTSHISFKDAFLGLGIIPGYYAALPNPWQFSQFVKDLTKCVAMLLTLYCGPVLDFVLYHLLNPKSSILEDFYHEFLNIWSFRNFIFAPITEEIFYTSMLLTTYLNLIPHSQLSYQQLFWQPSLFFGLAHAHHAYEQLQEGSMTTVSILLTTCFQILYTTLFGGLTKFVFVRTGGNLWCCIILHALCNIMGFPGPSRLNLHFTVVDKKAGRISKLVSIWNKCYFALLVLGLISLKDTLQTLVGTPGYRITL
eIF4H FP inh retest: further read-out of eIF4H FP inh, marked with its call; inhibition, %; compound at 20 µM; confirmation average;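 mean of two retest wells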
PABP polyA inh retest: second read-out of PABP polyA inh, no call of its own (marks repeat the call); inhibition, %; compound at 20 µM; confirmation repeats;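 mean of two retest wells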
MT1-MMP act inh RFP: further read-out of MT1-MMP act inh, marked with its call; RFP signal change, %; measured here: RFP expression control read;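 0 = vehicle wells; hits needed this value within 50% of zero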
Numbers without * were called inactive; i = inactive; / = no result given; + = active, no number. The order is random; about 2.9% have a hit in one of these screens.

SMILES | PABP polyA inh | CSC inhib | MT1-MMP act inh | MT1-MMP act inh RFP | UUG fidelity | eIF4H FP inh | Env fusion inh | Rce1 inhib | others
CC(=O)N1CCN(C(=O)c2cc(S(=O)(=O)N(C)Cc3ccccc3)ccc2Cl)CC1 | / | / | 2 | 5 | 6 | / | 2 | /
Cc1ccc(S(=O)(=O)N2CCCC2CNC(=O)C(=O)NCc2ccccn2)cc1 (stereo unspecified) | / | / | 4 | 0 | -30 | / | -9 | i
Clc1ccc(-c2nc3ccc(Cl)cn3c2Cc2ccccc2)cc1 | / | / | -11 | -10 | -15 | / | -39 | /
CCOC(=O)N1CCN(c2c(NCc3ccc(Cl)cc3)c(=O)c2=O)CC1 | -6 | 57 | 13 | -1 | -9 | 2 | -275 | i
Cc1cccc(N(C(=O)c2csnn2)C(C(=O)NC2CCCCC2)c2ccccn2)c1C (stereo unspecified) | 4 | 33 | 1 | 0 | 2 | 1 | 5 | i
CCCCc1c(C)nc2ccc(OC)cc2c1SCCC(=O)O | / | 1 | -2 | -2 | -17 | / | -1 | i
CCOc1ccc(Br)cc1C(=O)N/N=C/c1ccc([N+](=O)[O-])cc1 | -11 | -9 | 4 | 4 | / | -4 | -19 | i
COc1ccc(C(Cl)=C(c2ccc(OC)cc2)c2ccc(OC)cc2)cc1 | -13 | 6 | 1 | -3 | -15 | -7 | / | i
Cc1ccc(S(=O)(=O)N2CCCCC2)cc1NC(=O)CNc1ccc(C(F)(F)F)cc1 | / | -10 | -2 | -16 | 12 | / | -361 | i
Cc1ccccc1Cn1ccc(NC(=O)c2nc3ncccn3n2)n1 | -13 | / | -2 | 2 | -15 | 3 | / | i
CS(=O)(=O)N1CCC(C(=O)NCCc2ccccc2)CC1 | -10 | 4 | 2 | -1 | -3 | -1 | / | i
OCCC1CN(Cc2ccc3c(c2)CCO3)CCN1Cc1ccc(F)cc1 (stereo unspecified) | 0 | -6 | -3 | -1 | / | -9 | 6 | i
O=C(NCCCN1CCCCCC1)c1ccc(CS(=O)(=O)Cc2ccccc2F)o1 | 41 | / | 1 | 3 | -14 | 60 | / | / | eIF4H FP inh retest=-13;PABP polyA inh retest=8
O=C(NCC1CC1)c1ccc(Oc2cc(Cl)cc(Cl)c2)o1 | 6 | 27 | 1 | 0 | -6 | 0 | 10 | i
COc1ccc(/C=C/C(=O)Nc2sc(Cc3ccccc3)c(C)c2C(N)=O)cc1 | -4 | 9 | -6 | -8 | / | -2 | -10 | i
Cc1ccccc1-c1coc2cc(O)ccc2c1=O | 3 | 5 | -4 | 3 | -3 | -6 | / | i
CCCc1cc(=O)oc2cc(OCC(=O)NCCCn3ccnc3)ccc12 | 1 | 4 | 2 | 3 | -19 | 2 | 1 | i
CC(=O)OCCN(Cc1ccccc1)Cc1ccc2c(c1)OCO2 | -5 | 11 | -1 | -5 | -9 | -10 | -8 | i
O=C(N/N=C/C1C(c2ccccc2)C1(Cl)Cl)c1cccc(Br)c1 (stereo unspecified) | 4 | 10 | 2 | 1 | 0 | -3 | / | i
O=C(NCc1nnnn1-c1ccc(F)c(F)c1)c1cc2ccccc2o1 | / | -8 | 4 | 5 | -5 | / | -2 | i
Cc1cnc(C(=O)Nc2ccc(C(C)C)cc2)cn1 | -6 | 20 | -1 | -4 | / | 0 | -101 | i
O=C(O)CN(Cc1ccccc1)S(=O)(=O)c1ccc(F)cc1 | 0 | -12 | 2 | 3 | 8 | 3 | 4 | /
O=C(O)CSc1c(-c2cccs2)[nH]c2ccccc12 | 6 | 0 | 2 | 1 | -19 | 10 | -12 | i
COCn1c(=O)c2c(nc(SC3=NCCS3)n2Cc2ccccc2C)n(COC)c1=O | 4 | 1 | -2 | -9 | -2 | 3 | / | i
CCc1c(C)nc(SCc2cccnc2)[nH]c1=O | 3 | -14 | -1 | 1 | -1 | -10 | / | i
Cc1ccc(/C=N/N=C2\SCC(=O)N2CC2CC2)cc1 | 3 | 2 | 0 | -1 | / | -4 | -1 | i
COc1cccc2cc(/C(C)=N/NC(=O)c3ccco3)oc12 | -7 | -9 | 4 | 5 | / | -1 | -23 | i
CC(C)n1cc(/C=C2/SC(=O)N(CC(=O)N3CCCC3)C2=O)c2ccccc21 | 0 | 34 | 1 | 2 | / | 8 | -5 | i
CCOC(=O)c1nn(-c2c(C)n(C)n(-c3ccccc3)c2=O)cc1O | 0 | -10 | 1 | 1 | -9 | 1 | / | i
O=C1C2CCCN2C(=O)N1CCCN1CCN(c2cccc(Br)c2)CC1 (stereo unspecified) | -6 | 6 | 3 | -1 | -9 | 2 | 16 | i
COc1ccc(-c2cc(C(=O)Nc3ccc(S(=O)(=O)Nc4onc(C)c4C)cc3)c3ccccc3n2)cc1OC | 19 | 5 | -1 | 2 | / | 2 | -17 | i
COc1ccc2oc(C(=O)N(Cc3ccco3)Cc3cccs3)c(C)c2c1 | / | 6 | -4 | -4 | / | / | -8 | i
O=[N+]([O-])c1ccc([C@H](O)[C@H](CO)N=Cc2ccccc2O)cc1 | -7 | -16 | 0 | 1 | -22 | -1 | / | i
Cc1ccccc1Cn1c(=O)n(CCCC(=O)NCc2ccco2)c(=O)c2ccccc21 | 4 | 14 | 3 | -6 | -11 | 1 | / | i
N#C/C(=C/c1ccc(C(=O)O)cc1)C(=O)NCc1ccccc1 | 0 | -6 | -2 | 0 | -17 | -8 | / | i
CCOc1ccc(C(=O)Nc2ccc(C(F)(F)F)n(C)c2=O)cc1 | 2 | -6 | 1 | 1 | -25 | -5 | -4 | /
COc1cc(NC(=O)c2ccccc2)c(OC)cc1NC(=O)CSc1[nH]c(=O)cc(C)c1C#N | 2 | 42 | -16 | -3 | -9 | 14 | -88 | i
CC(C)CNC(=O)c1cc2nc3c(c(C(F)(F)F)n2n1)CCc1ccccc1-3 | -5 | -3 | 3 | 3 | -6 | 0 | / | i
O=S(=O)(Cc1ccc(Cl)cc1)Nc1ccc2c(c1)OCO2 | 0 | 5 | 8 | 3 | -17 | 5 | / | i
CN1CCC(N(C)S(=O)(=O)c2ccc(NC(=O)COc3ccc(F)cc3)cc2)CC1 | / | 32 | 1 | -1 | -17 | / | 7 | i
CC(C)NC(=O)C1CCN(C2CCN(Cc3cn[nH]c3-c3ccccc3)CC2)CC1 | 4 | -21 | 2 | 2 | / | -15 | -18 | i
CN(Cc1c(F)cccc1Cl)C(=O)C1=CC=CN2CCS(=O)(=O)N=C12 | / | -10 | 1 | 2 | -5 | / | 0 | /
Cc1onc(-c2ccccc2Cl)c1C(=O)NCc1cccs1 | -13 | 6 | -1 | 1 | -6 | -9 | / | i
CCOc1ccc(N2C(=O)C3Sc4[nH]c(=O)sc4C(c4ccc(OC)c(OC)c4)C3C2=O)cc1 (stereo unspecified) | 11 | -8 | -3 | 4 | -3 | -2 | -14 | i
COC(=O)C1=C(C)N(C)C(=O)/C1=C\c1ccco1 | 7 | -4 | -2 | 6 | -8 | -2 | -13 | i
Nc1nc(-c2ccc(-c3ccccc3)cc2)cs1 | 28 | -1 | -3 | -9 | / | 11 | -168 | i
COc1ccccc1NC(=O)C(C)N(C)CC(=O)Nc1cccc2ccccc12 (stereo unspecified) | / | -2 | -2 | -2 | -9 | / | 3 | /
CCOc1ccc(N(CC(=O)NC(C(C)C)C(C)C)S(=O)(=O)c2ccc(OC)c(OC)c2)cc1 | 8 | 0 | -3 | -4 | / | -6 | 42 | i
CCCCOc1ccc(N2C(=O)CC(NCCc3ccc(S(N)(=O)=O)cc3)C2=O)cc1 (stereo unspecified) | -1 | -6 | 2 | 5 | 3 | 2 | 23 | i
N#C/C(=C\c1ccccc1)C(=O)NC1CC1 | -2 | / | 3 | 7 | -14 | 6 | 3 | i
More compounds:
SMILES | PABP polyA inh | CSC inhib | MT1-MMP act inh | MT1-MMP act inh RFP | UUG fidelity | eIF4H FP inh | Env fusion inh | Rce1 inhib | others
CC(=O)Nc1ccc(S(=O)(=O)N2CCC(c3nc4c(nnn4Cc4ccccc4Cl)c(=O)[nH]3)CC2)cc1 | 2 | -9 | -3 | 0 | -35 | -17 | 0 | i
CCCc1cc(=O)oc2cc(C)cc(OCC(=O)Nc3ccc(S(N)(=O)=O)cc3)c12 | / | 1 | -4 | 1 | -2 | / | 7 | i
CCN(C(=O)Cc1ccc(Br)cc1)C1CCCCC1 | -3 | -7 | 0 | 1 | 8 | 7 | / | i
COc1ccc(N(C)S(=O)(=O)c2cccc(C(=O)Nc3ccc(-n4cnnn4)cc3)c2)cc1 | 6 | -4 | 2 | -6 | -7 | 5 | 14 | i
Cc1ccc(Cc2c(-c3cccc(Cl)c3)nc3cc(C)c(Br)c(C)n23)cc1 | / | / | -3 | -4 | 0 | / | -4 | /
CCCNC(=S)N1CCC(C(=O)c2ccc(OC)cc2)CC1 | -10 | -2 | 4 | -1 | -10 | -2 | -2 | i
CCC(CC)c1nnc(NC(=O)c2cc(C(=O)OC)cc([N+](=O)[O-])c2)s1 | 9 | 1 | -3 | -3 | / | 9 | 17 | i
CN1CCN(c2ccccc2NC(=O)c2ccccc2F)CC1 | 7 | -13 | -3 | 1 | -14 | -2 | -8 | i
O=C1Cn2c(nc3ccccc32)-c2ccccc2N1 | 27 | 10 | 6 | 1 | -13 | 2 | / | i
COc1cc(CN2CCNC(=O)C2CC(=O)N2CCc3ccccc3C2)cc(OC)c1 (stereo unspecified) | 12 | -10 | -1 | 7 | 5 | 8 | -8 | i
O=C(NCC1(N2CCCCC2)CCCCC1)c1cccc(NS(=O)(=O)c2ccccc2)c1 | / | -8 | 0 | 2 | -16 | / | 4 | i
Cc1occc1-c1nnc(SCC(=O)NCCc2ccccc2)n1Cc1ccccc1 | -3 | 5 | -2 | -5 | 2 | -3 | / | i
O=C(NCc1ccc(Cl)cc1)c1cc2ccccn2n1 | 1 | -9 | 12 | 8 | -7 | -4 | -63 | i
CCc1ccccc1NC(=S)N1N=CCC1c1ccccc1 (stereo unspecified) | 0 | -9 | -5 | -4 | -19 | -7 | -4 | i
Cc1cc(C)n2c(SCc3ccccc3Cl)nnc2n1 | -7 | -18 | -3 | 7 | -7 | -2 | -140 | i
COCC(=O)OCC(=O)c1cc(C)n(-c2ccc(Br)cc2)c1C | 2 | 15 | 1 | 1 | / | -9 | -4 | i
C=CCSc1ncccc1C(=O)NCc1ccc(C)cc1 | -8 | 9 | 7 | 0 | -13 | -8 | 1 | i
CN1CCN(CC(=O)N2N=C(c3cccs3)CC2c2ccco2)CC1 (stereo unspecified) | 38 | -1 | -3 | 1 | -2 | 2 | / | i
CCn1nnc2cc(C(=O)N3CCC(C(=O)OC)CC3)ccc21 | / | -22 | 2 | 5 | -2 | / | -24 | /
CCN(CC)C(=O)c1sc(N2C(=O)Nc3ccccc3N2O)c(C(=O)OC)c1C | 3 | -3 | 2 | 2 | / | -2 | -6 | i
CC(NC(=O)C1CC2CCCC(C1)C2=O)c1ccccc1 (stereo unspecified) | 2 | -5 | 1 | -1 | -12 | -2 | / | i
C/C(Cl)=C\Cn1c(O)c(N=NC(N)=S)c2cc(Br)ccc21 | 3 | / | 2 | 0 | -28 | 13 | 1 | +

From PubChem BioAssay
